# High-throughput results: PubChem BioAssay, National Center for Advancing Translational Sciences (NCATS)
# Cruzain Triton: qHTS Assay for Promiscuous and Specific Inhibitors of Cruzain (with detergent). Cruzipain (Trypanosoma cruzi), P25779. purified cruzain, Z-FR-AMC fluorescence, 0.01% Triton. Potency, µM, for inactives: max response, negative = inhibition, usual class: inhibitors. 0.43% of 200,000 active; active = well fitted curve in the direction sought with a large enough effect; inconclusive = small, poorly fitted or top-dose-only effect, or another doubt; inactive = no such curve, though single readings can be large; an effect the other way counts as inactive or inconclusive;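 note: plate controls were neutral wells for no effect and buffer without enzyme for full effect; nearly all actives have a fitted effect of over 40% in size; top concentration of the series not given in the record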
# Target sequence (P25779 123-467 limits assumed): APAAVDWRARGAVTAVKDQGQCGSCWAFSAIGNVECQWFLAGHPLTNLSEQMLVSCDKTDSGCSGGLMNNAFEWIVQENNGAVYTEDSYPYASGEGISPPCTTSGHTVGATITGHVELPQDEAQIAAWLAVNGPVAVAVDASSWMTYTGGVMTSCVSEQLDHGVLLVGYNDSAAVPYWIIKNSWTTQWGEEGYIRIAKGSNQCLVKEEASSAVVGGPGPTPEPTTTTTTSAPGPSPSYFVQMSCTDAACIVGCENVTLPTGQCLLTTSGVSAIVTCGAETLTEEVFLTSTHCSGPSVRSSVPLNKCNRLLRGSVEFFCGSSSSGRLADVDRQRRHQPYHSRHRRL
#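 Purified cruzain (1.5 nM final) was preincubated with compounds for 15 min at room temperature in 100 mM sodium acetate pH 5.5, 5 mM DTT, 0.01% Triton X-100. Reaction started with 2 uM Z-FR-AMC; AMC fluorescence change over 60 s gave activity.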
# SARS PLP yeast: qHTS of Yeast-based Assay for SARS-CoV PLP; S. cerevisiae expressing SARS-CoV PLpro, growth rescue; control for the full effect not named in the record; 0.19% of 330,000 active; Potency, µM (top dose mostly 32.9 µM), for the others: at the top dose activity, positive = growth rescue; AID 485353, 2010; note: 0% is about no effect; nearly all actives have a fitted effect of over 55% in size; growth read by luminescence after 48 h
# MARV entry inh: qHTS for inhibitors of binding or entry into cells for Marburg Virus. Marburg virus pseudotyped entry inhibition, cell reporter; control for the full effect not named in the record; about a third of the inactives were read at about 46 µM. 1.8% of 300,000 active. AID 540276, 2011. Potency, µM (top dose mostly 37.8 µM), without a hit: at the top dose activity change, negative = inhibition, usual class: inhibitors; active = well fitted inhibition curve with a large enough effect; inconclusive = small, poorly fitted or top-dose-only effect, or effect the other way; inactive = flat fitted curve, though single readings scatter; tested in HEK293 cells; about a fifth of its hits are not listed in these tables; note: % is set by controls: 0 for no effect and ±100 for the full control effect; luciferase read-out
# StopGo reporter: High Throughput Screening for Foot and Mouth Disease Virus Antivirals; 1.2% of 410,000 active; human cells with a luciferase reporter of 2A StopGo recoding; control for the full effect not named in the record; AID 1159524, 2015; Potency, µM (titrated, usually from 57.9 µM), for inactives: at the highest dose signal change, negative = less light; active = well fitted falling curve with a large enough effect; inconclusive = small, poorly fitted or top-dose-only effect; inactive = no such curve, though single readings can be large or run the other way; tested in HEK293T cells; note: % is set by controls: 0 for no effect and ±100 for the full control effect; nearly all actives have a fitted effect of over 45% in size; luciferase light after 4 h
# Cruzain noTriton: qHTS Assay for Promiscuous and Specific Inhibitors of Cruzain (without detergent). purified cruzain, Z-FR-AMC fluorescence, no detergent. Potency, µM, for inactives: max response, negative = inhibition, hits mostly inhibitors. 2.3% of 200,000 active; active = well fitted curve in the direction sought with a large enough effect; inconclusive = small, poorly fitted or top-dose-only effect, or another doubt; inactive = no such curve, though single readings can be large; an effect the other way counts as inactive or inconclusive;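 note: plate controls were enzyme without inhibitor for no effect and buffer without enzyme for full effect; nearly all actives have a fitted effect of over 40% in size; top concentration of the series not given in the record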
#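 Detergent-free condition (0.00005% Triton X-100) in acetate buffer pH 5.5 with DTT. 1.5 nM enzyme and compound were pre-mixed 15 min, then 2 uM Z-FR-AMC substrate added; reaction progress from fluorescence change between first and third reads (60 s).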
# LASV entry inh: qHTS for Inhibitors of binding or entry into cells for Lassa Virus. AID 540256, 2011. 1.2% of 300,000 active. Lassa virus pseudotype entry inhibition, cell reporter; control for the full effect not named in the record. Potency, µM (series often up to 37.9 µM), for the others: at the top dose activity change, negative = inhibition, actives largely listed as inhibitors; active means well fitted inhibition curve with a large enough effect; inconclusive means small, poorly fitted or top-dose-only effect, or effect the other way; inactive means flat fitted curve, though single readings scatter; tested in HEK293 cells; note: % is set by controls: 0 for no effect and ±100 for the full control effect; nearly all actives have a fitted effect of over 50% in size; luciferase read-out
# RE007 growth inh: qHTS Assay for Inhibitors of the HIV-1 protein Vpr | S. pombe RE007 Vpr strain, BacTiter-Glo ATP luminescence, 24 h; control for the full effect not named in the record | Potency, µM (titrated, usually from 92.2 µM), for inactives: at the highest dose activity change, negative = less growth | 0.21% of 360,000 active; active = well fitted falling curve with a large enough effect; inconclusive = small, poorly fitted or top-dose-only effect; inactive = no such curve, though single readings can be large or run the other way;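 note: % is set by controls: 0 for no effect and ±100 for the full control effect; nearly all actives have a fitted effect of over 50% in size; the assay follows cell death caused by Vpr and the record does not say whether a fall means rescue or toxicity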
#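 Fission yeast strain RE007, carrying one chromosomally integrated HIV-1 vpr copy, was seeded at OD 0.01 in PMG+AL medium with 23 nL pinned compound. After 24 h at 30 °C and 99% humidity, viability was read by BacTiter-Glo luminescence.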
# NS1 inh: qHTS Assay for Inhibitors of Influenza NS1 Protein Function; S. cerevisiae slowed by influenza A NS1, growth recovery by OD600; Potency, µM (top dose mostly 46.1 µM), for inactives: at the highest dose activity, positive = more growth; 0.4% of 270,000 active; AID 2326, 2010; note: actives are rising curves; nearly all actives have a fitted effect of over 50% in size
#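 S. cerevisiae expressing influenza A NS1, grown in glucose, washed, then diluted 1:100 into pH 6.0 -URA galactose medium with 23 nl compound. Growth recovery read as OD600; NS1-free strain serves as control.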
# An asterisk follows results filed as active; u = inconclusive; x = no result given; & = joins results of further samples; [ ] = another dose, or the depositor's remark. Unless noted, calls come from the whole dose curve; as a rule, active means well fitted rising curve with a large enough effect; inconclusive means small, poorly fitted or top-dose-only effect; inactive means no such curve, though single readings can be large or run the other way. Potency is the fitted concentration of half-maximal effect. Not a hit list; overall some 4.5% were active at least once.
[1] Cc1cc(NC(=O)C(C)SCC(=O)OC(C)C(=O)Nc2cccc(C#N)c2)no1 (configuration not stated)
[2] CC(NC(=O)Nc1ccc(F)cc1)c1ccc2c(c1)OCO2 (configuration not stated)
[3] COc1ccccc1-c1nc(CNC(=O)NC2CCCCC2)c(C)o1
[4] COc1ccc(-c2nc3c(=O)n(C)c(=O)[nH]c3n2CCc2ccccc2)cc1
[5] COc1ccc(N2C(=O)CCC(C(=O)Nc3ccccn3)C2c2ccc(OC)c(OC)c2)cc1 (configuration not stated)
[6] COc1cc(C(=O)OCCN2CCOCC2)cc(OC)c1OC
[7] Cn1c(CCNC(=O)c2cccs2)nnc1SCC(=O)N1CCN(c2ccccc2)CC1
[8] Cc1ccc(CS(=O)(=O)c2ncc(Cl)c(C(=O)Nc3nnc(C)s3)n2)cc1
Screen / compound no.,1,2,3,4,5,6,7,8
Cruzain Triton,x,x,1.5%,3.0%,4.7%,5.0%,-1.2%,x
SARS PLP yeast,1%,-1%,x,3%,2%,0%,9%,1%
MARV entry inh,25%,x,x,11%,-15%&-15%,-1%,4%,x
StopGo reporter,-3%,-22%,14%,-22%,18%,x,-6%,u
Cruzain noTriton,x,x,-3%,-10%,8%,-1%,-8%,x
LASV entry inh,-4%[46.1 µM],x,20%[46.1 µM],-1%,0%,9%,-12%,x
RE007 growth inh,1%,19%,x,14%,14%,1%,6%,-6%
NS1 inh,x,-1%,x,-47%,-2%,-3%,u,19%

[9] COc1ccc(S(=O)(=O)N2CCCC2=O)cc1N(C)S(C)(=O)=O
[10] CS(=O)(=O)N(CC(=O)NCCSCc1cccc(Cl)c1)c1ccc(F)cc1
[11] CCCCOC(=O)Cn1c(=O)n(CC(=O)OCCCC)c2cc(C)ccc21
[12] Cc1cc(-c2ccc(C)c(S(=O)(=O)Nc3cccc(CN4CCCC4)c3)c2)on1
[13] O=C(c1cc(C(=O)N2CCOCC2)c2nc3ccccc3n2c1)c1ccccc1O
[14] O=C(NCc1cccs1)c1ccc2c(c1)ncn2C1CCCC1
[15] C=CCn1c(SCC(=O)Nc2cccnc2Cl)nnc1-c1ccc(Cl)cc1
[16] COc1ccc2[nH]c(C(=O)N3CCN(c4ccccc4F)CC3)c(C)c2c1
Screen / compound no.,9,10,11,12,13,14,15,16
Cruzain Triton,x,x,-1.8%,x,x,-0.9%,-0.8%,x
SARS PLP yeast,2%,5%,-17%,3%,0%,-4%,-30%,-1%
MARV entry inh,x,u,u,x,x,13%,0%,x
StopGo reporter,4%,-2%,-7%,33%[activator],5%,x,u,0%
Cruzain noTriton,x,x,12%,x,x,1%,21%,x
LASV entry inh,x,-19%,9%,x,x,5%,-30%,x
RE007 growth inh,3%,-1%,1%,1%,10%,0%,1%,0%
NS1 inh,9%,-18%,-9%,9%,0%,-24%,-4%,-61%

[17] COc1cc(NS(=O)(=O)c2c(C)oc3c(F)c(F)c(F)c(F)c23)cc(OC)c1OC
[18] Cc1cccc(NC(=S)N2CCN(S(C)(=O)=O)CC2)c1
[19] COc1ccc(CCNC(=O)c2n[nH]c(=O)c3ccccc23)cc1
[20] CC(=O)Oc1ccc(C(=O)OCC(=O)c2c(N)n(C)c(=O)n(C)c2=O)cc1OC(C)=O
[21] CN(CC(=O)N1CCN(c2ccccn2)CC1)S(=O)(=O)c1ccccc1
[22] CC(=O)Nc1ccc(C(=O)OCC(=O)NC(=O)NC(C)(C)C)cc1
[23] CCOc1ncccc1C(=O)Nc1ccc(C)cn1
[24] CN(C)C(=O)CSc1ccc(S(=O)(=O)N2CCCC2)cn1
Screen / compound no.,17,18,19,20,21,22,23,24
Cruzain Triton,x,x,2.4%,x,3.7%,-8.9%,x,x
SARS PLP yeast,4%,-6%,2%,0%,10%,7%,-1%,-1%
MARV entry inh,x,22%[46.1 µM],-2%,2%[46.1 µM],-8%,3%,u,u
StopGo reporter,0%,-10%,-3%,-8%,6%,30%,17%,-7%
Cruzain noTriton,x,x,-10%,x,-3%,-1%,x,x
LASV entry inh,x,u,0%,7%,u,11%,31%[46.1 µM],15%[46.1 µM]
RE007 growth inh,2%,7%,1%,-3%,-6%,2%,-13%,15%
NS1 inh,10%,-3%,1%,x,7%,8%,16%,x

[25] CN(C)NC(=O)c1ccsc1NC(=O)c1ccc(S(=O)(=O)N(C)C)cc1
[26] CC(C)CCN1CCN(Cc2cccs2)CC1CCO (configuration not stated)
[27] O=C(CS(=O)CC(=O)N(CC(=O)NC1CCCC1)c1ccccc1F)Nc1ccc(F)cc1 (configuration not stated)
[28] CCN(CC)c1ccc(NC(=O)CSc2nnc(C)c(=O)[nH]2)cc1
[29] O=c1c2cc(NC(=S)N3CCCCC3)ccc2nc2n1CCCCC2
[30] Cc1ccc(/C=C/S(=O)(=O)NCC(=O)OCC(=O)N2CC(=O)Nc3ccccc32)cc1
[31] CC(C)C(NS(=O)(=O)c1cccc2nsnc12)C(=O)NCc1ccco1 (configuration not stated)
[32] Cc1cc2[nH]c(=O)c(=O)[nH]c2cc1S(=O)(=O)N1CCN(c2cccc(C)c2C)CC1
Screen / compound no.,25,26,27,28,29,30,31,32
Cruzain Triton,x,x,x,-1.8%,x,x,x,x
SARS PLP yeast,1%,1%,2%,x,-6%,0%,0%,3%
MARV entry inh,x,u,u,u,8%[46.1 µM],x,x,x
StopGo reporter,u,-17%,13%,-12%,-11%,-21%,-10%,-28%&-19%
Cruzain noTriton,x,x,x,-4%,x,x,x,x
LASV entry inh,x,u,-3%,-19%[46.1 µM],9%[46.1 µM],x,x,3%[46.1 µM]
RE007 growth inh,-1%,0%,15%,x,-3%,10%,-4%,-3%
NS1 inh,2%,6%,4%,x,x,3%,-2%,5%

[33] COc1cc(/C=N/NC(=O)CNC(=O)c2cccs2)ccc1O
[34] O=C1CC2(CCN(C(=O)c3ccc(F)cc3)CC2)Oc2ccccc21
[35] CSc1cccc(Nc2cc(C(=O)NCCCN(Cc3ccccc3)C(C)C)c3ccccc3n2)c1
[36] O=C1CC(C(=O)N2CCC(N3CCC(C(=O)NC4CC4)CC3)CC2)c2ccccc21 (configuration not stated)
[37] OC(CNc1nc(-c2cccnc2)nc2ccccc12)c1ccccc1 (configuration not stated)
[38] CCCCNC(=O)c1ccccc1NC(=O)CN(c1ccccc1)S(=O)(=O)N(C)C
[39] CC(NC(=O)CNC(=O)C1CCCCC1)c1ccc(S(N)(=O)=O)cc1 (configuration not stated)
[40] CN(CC(=O)Nc1cccc(Cl)c1)C1=NS(=O)(=O)c2ccccc21
Screen / compound no.,33,34,35,36,37,38,39,40
Cruzain Triton,-3.8%,x,-8.5%,x,x,-4.3%&-5.1%,x,x
SARS PLP yeast,8%,-2%,x,0%,-17%,-11%,2%,u
MARV entry inh,13%,22%[46.1 µM],x,x,u,-21%[46.1 µM],12%[46.1 µM],-1%
StopGo reporter,2%,-16%,u,-4%,-8%,3%&-12%,-7%,-3%
Cruzain noTriton,-3%,x,-7%,x,x,2%&-11%,x,x
LASV entry inh,16%,11%,u,x,u,u,-26%[46.1 µM],-4%
RE007 growth inh,-10%,43%,x,-8%,-8%,6%,7%,-2%
NS1 inh,14%,x,x,11%,-6%,-5%,7%,x

[41] CCc1nn(C(C)C(=O)N2CC(C)CC(C)C2)c(=O)c2cc3occc3n12 (configuration not stated)
[42] COc1cccc(OC)c1-c1nnc(-c2cn(C)c3ccccc23)o1
[43] CCN(CC)S(=O)(=O)c1cccc(C(=O)NC2CCCCC2)c1
[44] COc1ccc(OC)c2[nH]c(=O)c(CCNC(=O)c3ccc(S(=O)(=O)N4CCCCC4)cc3)cc12
[45] Cc1noc(C)c1CSCC(=O)OCC(=O)N1CC(=O)Nc2ccccc21
[46] COc1ccc2c(c1)Cc1sc(NC(=O)c3cccc(F)c3)nc1-2
[47] Cc1cc2c(=O)oc(-c3ccc(F)cc3)nc2s1
[48] CSc1nc(S(=O)(=O)c2ccc(C)cc2)c(Cl)s1
[49] Cc1cc(N2CCOCC2)nc2ccc(NC(=O)CCC(=O)N3CCN(c4cccc(C(F)(F)F)c4)CC3)cc12
Screen / compound no.,41,42,43,44,45,46,47,48,49
Cruzain Triton,x,15%,3.2%,-4.9%,5.1%,-5.9%,x,x,x
SARS PLP yeast,3%,5%,4%,-1%,2%,x,0%,-1%,1%
MARV entry inh,x,-27%,u,-14%,17%,u,-2%,u,u
StopGo reporter,-14%,-4%,72%[activator],u,-18%,-12%,15%,-10%,-27%
Cruzain noTriton,x,-3%,1%,u,-5%,2%,x,x,x
LASV entry inh,x,-8%,-39%[14.3 µM],1%,3%,23%[46.1 µM],3%,1%[46.1 µM],u
RE007 growth inh,9%,-6%,9%,30%,4%,x,-13%,7%,-9%
NS1 inh,4%,-3%,-5%,-33%,-2%,x,2%,x,1%
